Rango release inh – inhibition of RanGTP-driven Rango-importin beta dissociation; O95149+P62826; Biochemical FRET Rango-importin beta, RanGTP-induced dissociation; AID 540253; Potency, µM (titrated, usually from 46.1 µM), without a hit: at the top dose activity change, negative = inhibition; actives 0.071% (n = 340,000); active means falling FRET ratio curve, often poorly fitted, with flat reads before Ran was added; inconclusive means other falling curves, or compound fluorescence or quenching; inactive means flat or rising ratio curve;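 note: potency is the fitted concentration of half-maximal effect; % of control where 0% means no effect; nearly all actives have a fitted effect of over 45% in size; -100% = wells without RanGTP and RCC1; the record marks most hits as doubtful in a second field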
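Rango FRET biosensor (snurportin-1 IBB flanked by N-terminal EYFP and C-terminal CFP10) at 0.1 uM, with 0.25 uM importin beta in PBS, 1mM DTT, 0.02% Tween-20, 0.1% BSA. 0.6 uM Ran, 2mM GTP and 0.2 uM RCC1 were then added for 45 min at room temperature. Inhibition read as loss of FRET rise.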
GLA inh pH 4.5 – inhibitors of human alpha-galactosidase A at pH 4.5; P06280; purified enzyme, 4-MU-alpha-Gal fluorescence, pH 4.5; activity change, negative = inhibition, % at 105 µM; 230,000 tested, under 10 active; AID 1467; inconclusive = small, poorly fitted or top-dose-only inhibition, or a rising curve; inactive = flat fitted curve, though single readings scatter; no compound was filed as active;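 note: 0% = full activity with enzyme and -100% = basal without enzyme; dose as in the result columns while the protocol names 77 µM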
Rango-impB inh – prevents formation of the Rango-importin beta complex | actives 0.031% (n = 340,000) | AID 540263 | Potency, µM (titrated, usually from 92.2 µM), without a hit: top-dose inhibition of complex formation | Q14974 | Rango CFP/YFP FRET sensor + importin beta, 45 min; active = rising FRET ratio curve, often small or poorly fitted; inconclusive = mostly compound fluorescence or quenching in the first reads; inactive = flat curves in all reads;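 note: potency is the fitted concentration of half-maximal effect; 0% = DMSO wells and 100% = buffer wells lacking importin beta; nearly all actives have a fitted effect of over 15% in size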
Target sequence (Q14974 whole entry, looked up): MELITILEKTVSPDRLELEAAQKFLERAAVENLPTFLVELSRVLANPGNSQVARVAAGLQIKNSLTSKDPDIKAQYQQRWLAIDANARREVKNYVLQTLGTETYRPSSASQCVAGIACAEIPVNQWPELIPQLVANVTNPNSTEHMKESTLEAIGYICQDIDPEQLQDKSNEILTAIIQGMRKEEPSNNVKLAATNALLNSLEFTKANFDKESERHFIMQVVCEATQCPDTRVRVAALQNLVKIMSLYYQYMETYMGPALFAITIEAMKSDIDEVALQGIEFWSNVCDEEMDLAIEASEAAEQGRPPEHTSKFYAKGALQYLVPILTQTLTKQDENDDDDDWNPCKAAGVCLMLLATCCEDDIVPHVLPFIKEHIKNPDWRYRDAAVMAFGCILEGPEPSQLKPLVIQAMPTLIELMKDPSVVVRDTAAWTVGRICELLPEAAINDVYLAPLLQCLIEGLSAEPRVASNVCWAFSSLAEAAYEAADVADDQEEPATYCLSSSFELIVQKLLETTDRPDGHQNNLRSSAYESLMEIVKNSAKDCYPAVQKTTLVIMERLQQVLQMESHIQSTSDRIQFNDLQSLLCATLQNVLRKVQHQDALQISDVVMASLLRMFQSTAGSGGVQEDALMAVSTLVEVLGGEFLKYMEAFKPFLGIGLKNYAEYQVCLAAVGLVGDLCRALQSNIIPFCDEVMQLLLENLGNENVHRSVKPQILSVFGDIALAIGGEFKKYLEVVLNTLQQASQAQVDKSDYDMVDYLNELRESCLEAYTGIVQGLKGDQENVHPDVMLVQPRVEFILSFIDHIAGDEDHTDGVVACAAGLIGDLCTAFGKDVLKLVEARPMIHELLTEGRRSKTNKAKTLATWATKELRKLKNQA
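FRET biosensor Rango (snurportin 1 IBB between N-terminal EYFP and C-terminal Cerulean), 50 nM in PBS/1 mM DTT/0.02% Tween-20/0.1% BSA, preincubated 5 min RT with compound; 0.125 microM importin beta added, 45 min RT, CFP/YFP FRET ratio read.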
miR-21 FLuc – miR-21 reporter, rising signal; 340,000 tested, under 10 active; HeLa miR-21 FLuc reporter, luciferase, 48 h; AID 2288; Potency, µM (doses to about 38.3 µM), inactives show at the top dose reporter change, positive = more light; active = well fitted rising curve with a large enough effect; inconclusive = small, poorly fitted or top-dose-only effect; inactive = no such curve, though single readings can be large or run the other way;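 note: % of control where 0% means no effect; miR-21 action dims this reporter so a rising signal means less miR-21 action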
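Using DMEM plus 10% FBS, HeLa miR-21-FLuc cells are incubated with test compounds (final up to about 40uM) for 48 hours; firefly luciferase signal is then imaged following reagent-mediated lysis.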
* hit, by the source's call; u = inconclusive; x = no result given; & = joins results of further samples.

SMILES	Rango release inh	GLA inh pH 4.5	Rango-impB inh	miR-21 FLuc
Cc1ccc(C(=O)Nc2cccc([N+](=O)[O-])c2)cc1S(=O)(=O)Nc1ccc(C(=O)O)cc1	6%	-23	-1.5%	-3%
Cc1ccc(NC(=O)CSCc2nc3c(nnn3Cc3ccc(F)cc3)c(=O)[nH]2)c(C)c1	29%	-1	-5.9%	-2%
CN(C)C(=O)CSc1nc2cc(S(=O)(=O)N3CCOCC3)ccc2o1	-9%	x	-1.0%	x
COc1ccc(NC(=O)CCN2CCN(S(=O)(=O)c3ccc(F)cc3)CC2)cc1	0%	x	0.6%	3%
O=C(COc1ccccc1Cl)Nc1ccc(C(=O)c2ccc(C(=O)O)cc2)cc1	1%	0	3.2%	-40%
Cc1c(CCC(=O)NCC(=O)O)c(=O)oc2cc3occ(-c4ccccc4)c3cc12	-2%	x	-6.0%	0%
O=C(OCC(=O)N1CCN(c2ccccc2)CC1)c1ccc([N+](=O)[O-])s1	-10%	x	-0.3%	x
COc1ccc(CNC(=O)C2CCC(=O)N(CCCN3CCCC3=O)C2)c(OC)c1 (stereo not drawn)	0%	x	-4.2%	-1%
COc1ccc(N(CC(=O)NC2CCS(=O)(=O)C2)S(=O)(=O)c2ccc(Cl)c(Cl)c2)cc1 (stereo not drawn)	0%	x	-0.5%	x
COc1cc(NS(=O)(=O)c2cc(NC(C)=O)ccc2OC)c(OC)cc1NC(=O)c1ccccc1	5%	x	-4.0%	x
O=C(Cc1ccccc1Cl)Nc1cccc(S(=O)(=O)N2CCOCC2)c1	-11%	5	-3.3%	-14%
CCn1cnc2cc(NCc3ccc(N(C)C)cc3)ccc21	-5%	2	1.4%	-41%&-37%
CCCCCCSc1ccc(-c2nc3ccc(Cl)cn3c2NCCCC)cc1OC	u	x	u	x
O=C(COC(=O)CCc1ccc(S(=O)(=O)N2CCOCC2)cc1)Nc1cccc(Cl)c1	10%	u	0.4%	-2%
O=C(CCS(=O)(=O)c1cccc2nonc12)NCc1ccc(Cl)cc1	0%	-8	-3.0%	-1%
N#Cc1cccc(C#N)c1NCC1CCCO1 (stereo not drawn)	0%	x	0.2%	-6%
CC(=O)Nc1ccc(S(=O)(=O)NC2=NCN(c3ccc([N+](=O)[O-])cc3)CN2)cc1	9%	x	2.3%	-1%
COc1ccc(/C=C2\C(=O)ON=C2c2ccccc2)cc1OC	14%	x	0.1%	-8%
Cc1ccnc(SCC(=O)Nc2cc(C)on2)n1	-1%	x	-1.3%	1%
O=[N+]([O-])c1ccccc1CN1CCN(Cc2ccccn2)CC1	-3%	-1	-1.5%	-5%
N#Cc1ccc(OCC(=O)NC2CCCCCC2)cc1	-3%	x	-0.7%	x
Cc1cc([N+](=O)[O-])cc2c1NC(c1ccccn1)C1CC=CC21 (stereo not drawn)	-2%	0	u	-2%
CCOC(=O)c1c(NC(=O)CSc2nnc(-c3cccnc3)n2Cc2ccco2)sc(C)c1C	-9%	2	-2.1%	-10%
COc1cccc(/C=N/NC(=O)CSc2nnc(C)n2-c2ccccc2)c1O	-2%	-4	1.8%	25%
Cc1ccc(CNC(=O)CO/N=C/c2ccc3c(c2)OCO3)cc1	9%	1	-6.4%	-3%
(listing goes on)
SMILES	Rango release inh	GLA inh pH 4.5	Rango-impB inh	miR-21 FLuc
CCn1cc(CN2CCN(Cc3ccc(C)o3)C(CCO)C2)c2ccccc21 (stereo not drawn)	6%	-9	-1.6%	-3%
CC(C)(C)NC(=O)C(OC(=O)c1ccco1)c1ccccc1F (stereo not drawn)	7%	x	0.7%	4%
COc1ccc(NC(=O)C(CCCCNC(=O)OC(C)(C)C)NC(=O)OCc2ccccc2)cc1 (stereo not drawn)	-13%	4	-2.0%	-8%
CCOc1cc(/C=C2\COc3ccccc3C2=O)cc(Br)c1OCC(=O)N(C)C	0%	x	-0.4%	u
COC(=O)c1nnn(-c2nonc2N)c1CSc1nnc(C)s1	0%	2	-2.2%	0%
COc1ccc(C(=O)N/C(=C\c2ccccc2)C(=O)NCCCn2ccnc2)cc1	-8%	x	0.3%	-4%
Cc1cc(C)nc(SCC(=O)c2ccc(F)cc2F)n1	-7%	x	3.5%	-29%
CC(C)(C)NC(=O)NC(=O)COC(=O)Cn1cnc2ccccc2c1=O	4%	0	0.3%	0%
S=C(Nc1ccc(Cl)cc1)N1CCCCC1	-5%	10	4.7%	-22%
O=C1CCCCN1CC(=O)N1CCCC(Nc2ccc(F)c(F)c2)C1 (stereo not drawn)	-2%	x	-0.9%	-1%
Cc1cc(C(=O)OCC(=O)Nc2cccc([N+](=O)[O-])c2)c(C)o1	-26%	x	-1.1%	x
COc1cccc(Oc2nnnn2-c2ccccc2)c1	-1%	10	-1.4%	-52%
CC[C@]12C(=O)N(C)C[C@H]([C@@H]3C(=O)N(C)C(=O)[C@@H]31)N2C(=O)c1ccc(F)cc1	0%	x	2.5%	x
Cc1c(C(c2ccccc2O)c2c(C)n(C)n(-c3ccccc3)c2=O)c(=O)n(-c2ccccc2)n1C	-21%	1	1.1%	-2%
O=C(CN(Cc1ccc(Cl)cc1)S(=O)(=O)c1ccccc1)NCC1CCCO1 (stereo not drawn)	-20%	x	1.6%	3%
C/C=C\C(=O)Nc1cccc(C2=NOC3(C2)C[C@H](C(N)=O)N(C(=O)/C=C/CC)C3)c1 (stereo partly drawn)	5%	1	u	2%
CNc1ncc(C(=O)c2ccccc2)s1	4%	0	-1.1%	-39%
Cc1cc(OCC(=O)NCc2cccnc2)ccc1[N+](=O)[O-]	13%	2	2.6%	1%
Cc1ccc(-c2nnc(SCc3ccccc3F)o2)cc1	-13%	-9	-3.3%	-36%
CC(C)C[C@H](NC(=O)N1CCn2c1nc1ccccc12)C(=O)N[C@@H](C(=O)O)c1ccccc1	2%	x	2.8%	-5%
CC1CCCCN1C(=O)COc1ccc(F)cc1 (stereo not drawn)	7%	-5	5.6%	-6%
Cc1cc(S(=O)(=O)Nc2cccc(C(=O)O)c2)c(C)c(S(=O)(=O)c2ccc(Cl)cc2)c1	-23%	x	-0.6%	0%
CCC(C)NC(=O)N[C@@H](Cc1ccccc1)C(=O)O (stereo partly drawn)	-4%	-1	-3.2%	-2%
CCCn1c(=O)c2ccccc2n2c(SCC(=O)c3cc(C)n(CC4CCCO4)c3C)nnc12 (stereo not drawn)	x	4	x	2%
CCCCNC(=O)C1(N2C(=O)c3ccccc3C2=O)CCCC1	2%	x	0.3%	x
New compounds follow.
SMILES	Rango release inh	GLA inh pH 4.5	Rango-impB inh	miR-21 FLuc
CC(C)c1ccc(C2c3[nH]c4ccccc4c3C[C@H]3C(=O)N(c4ccccc4C(=O)N4CCC(C(=O)O)CC4)C(=O)N23)cc1 (stereo partly drawn)	u	x	u	1%
CN(N)c1nc(N2CCCC2)nc(N2CCCC2)n1	5%	x	0.2%	x
O=c1cc(/C=C/c2ccccc2)oc2ccccc12	26%	-1	1.0%	-36%
O=C(CN1C(=O)CSCC1=O)Nc1ccc2c(c1)OCO2	-3%	4	-2.7%	0%
O=S(=O)(NC1=NCCC1)c1ccc(F)cc1F	-10%	4	-2.0%	0%
N#Cc1ccccc1NC(=O)COC(=O)CCc1ccccc1	6%	x	1.2%	5%
COc1ccccc1N1CCN(C2CCCN(Cc3ccc(Cl)cc3)C2)CC1 (stereo not drawn)	15%	x	2.1%	14%
COc1ccc(CC(=O)NNC(=O)c2cnccn2)cc1	20%	-2	0.5%	-1%
CCO[C@H]1OC(C(=O)O)=C[C@@H](C)[C@@H]1CCCO	-8%	-3	3.1%	0%
CC(C)CN(CC(C)C)c1nnc(N)s1	-16%	-6	-2.4%	-5%
CCOC(=O)c1ccc2c(c1)nc(SCC(=O)NC(C)C)n2CC	5%	-11	0.1%	-7%
Cc1ccc(NC(=O)N2CCCC2C(=O)Nc2c(C)cc(C)cc2C)cc1 (stereo not drawn)	-3%	x	-0.8%	-2%
Cc1c([N+](=O)[O-])c([N+](=O)[O-])nn1CC(=O)NCCc1ccccc1	3%	2	2.5%	-6%
Cc1cc(SC(C)C(=O)Nc2ncc(Cl)cc2Cl)nc2ccccc12 (stereo not drawn)	-5%	5	-1.4%	1%
COc1ccc(NC(=O)COC(=O)c2cccn2C)cc1S(=O)(=O)N1CCCCC1	-6%	x	0.1%	x
O=C(CSc1ncn[nH]1)Nc1ccccc1C(=O)O	-2%	6	3.1%	-2%
C[C@H](NC(=O)[C@H]1N2C(=O)c3ccccc3C2SC1(C)C)C(=O)N1CCC[C@H]1CO (stereo partly drawn)	3%	x	1.7%	1%
CC(C)(C)OC(=O)N(Cc1ccccc1)Cc1ccccc1OCc1ccc(NC(=O)C2CCC2)cc1	-13%	x	-0.4%	x
Cc1ccc(-c2nc(NC(=O)CSc3cc(C)c4ccccc4n3)ns2)cc1	-2%	-3	-3.4%	0%&-4%
CCOC(=O)C(NC(C)=O)(Nc1ccc(S(=O)(=O)Nc2cc(C)on2)cc1)C(F)(F)F (stereo not drawn)	16%	2	0.5%	-6%
CSc1cc(C)c(OCC(=O)Nc2ccc(NC(C)=O)cc2)c(C)c1	-8%	3	1.5%	1%
COC(=O)Cc1ccc2sc(-c3ccccc3)nc2c1	-23%	3	1.5%	-41%
CC(=O)Nc1ccc(N/C=C/C(=O)c2ccc(C)o2)cc1	u	1	u	-40%
COc1ccc(/C=C(\NC(=O)c2ccccc2)C(=O)N/N=C/c2ccncc2)cc1	4%	-7	0.9%	-3%
O=C(NCCC1CCCCN1S(=O)(=O)c1ccc(F)cc1)C(=O)NCc1cccnc1 (stereo not drawn)	12%	x	4.6%	x

5 compounds from above, sorted by their value in GLA inh pH 4.5, descending:
SMILES	Rango release inh	GLA inh pH 4.5	Rango-impB inh	miR-21 FLuc
CCOC(=O)C(NC(C)=O)(Nc1ccc(S(=O)(=O)Nc2cc(C)on2)cc1)C(F)(F)F (stereo not drawn)	16%	2	0.5%	-6%
COc1ccc(CC(=O)NNC(=O)c2cnccn2)cc1	20%	-2	0.5%	-1%
CCO[C@H]1OC(C(=O)O)=C[C@@H](C)[C@@H]1CCCO	-8%	-3	3.1%	0%
CC(C)CN(CC(C)C)c1nnc(N)s1	-16%	-6	-2.4%	-5%
CCOC(=O)c1ccc2c(c1)nc(SCC(=O)NC(C)C)n2CC	5%	-11	0.1%	-7%

Further records:
SMILES	Rango release inh	GLA inh pH 4.5	Rango-impB inh	miR-21 FLuc
Cc1ccc([N+](=O)[O-])cc1S(=O)(=O)Nc1ccc(C(=O)NCC2CCCO2)cc1 (stereo not drawn)	13%	x	u	x
CCCn1c(-c2ccc(F)cc2)cnc1SCC(=O)O	12%	-3	-1.5%	-5%
CC(=O)Nc1c(O)nc(SCC(=O)Nc2nnc(SCc3ccccc3)s2)[nH]c1=O	9%	-1	-2.7%	-5%
NC(=O)C1CC(=O)N(c2ccc(OCC(=O)Nc3ccc(Cl)cc3)cc2)C1 (stereo not drawn)	17%	x	-0.7%	-7%
CC(NCC(=O)Nc1ccccc1C(=O)NC1CC1)c1cccc(C(F)(F)F)c1 (stereo not drawn)	3%	x	-1.8%	x
Cc1ccc(N/C=C2\C(=O)N(c3ccc(F)cc3F)C(c3cccnc3)S2(=O)=O)cc1 (stereo not drawn)	-20%	-3	-1.4%	-4%
Cc1csc(-c2cccnc2)n1	-1%	5	0.7%	-2%
CCN(CC)CCn1c(NS(=O)(=O)c2ccc(Cl)cc2)nc2ccccc21	0%	x	-3.1%	2%
COc1ccc(C(C)=O)cc1COc1ccc(F)cc1	1%	5	-0.6%	-11%
O=C(CN1C(=O)NC2(CCc3ccccc3C2)C1=O)Nc1ccc(Cl)cc1F (stereo not drawn)	22%	10	1.3%	1%
CCOc1ccccc1CNC(=O)CN1C(=O)CSc2ccc(S(=O)(=O)N3CCOCC3)cc21	4%	x	3.6%	-2%&5%
CCOC(=O)Nc1sc(C(=O)N(C)C)c(C)c1C(=O)OCC	2%	13	-1.8%	-18%
CC(OC(=O)c1cc(S(=O)(=O)N(C)C)ccc1N1CCCC1)C(=O)NCc1ccccc1 (stereo not drawn)	-9%	x	-1.0%	-13%

Screening results as filed in PubChem BioAssay.

Only part of the results is shown. The share of hits here may be higher or lower than overall.
